From PubChem BioAssay
AID923: qHTS Assay for Allosteric/Competitive Inhibitors of Caspase-1: Spectroscopic Profiling in AFC Spectral Region; compound fluorescence, AFC spectral region (405/520 nm); almost no hit is shown here; Potency, µM (top dose mostly 57.5 µM), for inactives: at the highest dose fluorescence increase, actives largely listed as activators; 75,000 compounds, 1.1% hits; AID 923, 2007; active = well fitted activation curve with a large enough effect; inconclusive = small, poorly fitted or top-dose-only effect;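 also: potency is read from the fitted curve at half-maximal effect; 0% is about no effect; scaled to a free AFC standard on each plate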
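Compound autofluorescence profiled at 405 nm ex/520 nm em during kinetic caspase 1 run (50 nM enzyme, 5 uM Ac-WEHD-AFC, HEPES pH 7.5, 10 mM DTT). Titration up to 57 uM; baseline from regression intercept, normalized to AFC standard curve.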
TSHR ag: activates the human thyroid stimulating hormone receptor. 73,000 compounds, 0.48% hits. Potency, µM (top dose mostly 57.1 µM), for inactives: at the highest dose activation, hits mostly activators. HEK293-CNG-TSHR cells (CNG channel as cAMP sensor), membrane potential dye, cAMP. AID 926; active = well fitted activation curve of enough size with the parental cells flat; inconclusive = any curve in the parental cells; inactive = parental cells flat and receptor cells flat or falling; also: potency is read from the fitted curve at half-maximal effect; % of control where 0% means no effect; weak receptor curves with flat parental cells got no call and are not listed
Target sequence (P16473 whole entry, looked up): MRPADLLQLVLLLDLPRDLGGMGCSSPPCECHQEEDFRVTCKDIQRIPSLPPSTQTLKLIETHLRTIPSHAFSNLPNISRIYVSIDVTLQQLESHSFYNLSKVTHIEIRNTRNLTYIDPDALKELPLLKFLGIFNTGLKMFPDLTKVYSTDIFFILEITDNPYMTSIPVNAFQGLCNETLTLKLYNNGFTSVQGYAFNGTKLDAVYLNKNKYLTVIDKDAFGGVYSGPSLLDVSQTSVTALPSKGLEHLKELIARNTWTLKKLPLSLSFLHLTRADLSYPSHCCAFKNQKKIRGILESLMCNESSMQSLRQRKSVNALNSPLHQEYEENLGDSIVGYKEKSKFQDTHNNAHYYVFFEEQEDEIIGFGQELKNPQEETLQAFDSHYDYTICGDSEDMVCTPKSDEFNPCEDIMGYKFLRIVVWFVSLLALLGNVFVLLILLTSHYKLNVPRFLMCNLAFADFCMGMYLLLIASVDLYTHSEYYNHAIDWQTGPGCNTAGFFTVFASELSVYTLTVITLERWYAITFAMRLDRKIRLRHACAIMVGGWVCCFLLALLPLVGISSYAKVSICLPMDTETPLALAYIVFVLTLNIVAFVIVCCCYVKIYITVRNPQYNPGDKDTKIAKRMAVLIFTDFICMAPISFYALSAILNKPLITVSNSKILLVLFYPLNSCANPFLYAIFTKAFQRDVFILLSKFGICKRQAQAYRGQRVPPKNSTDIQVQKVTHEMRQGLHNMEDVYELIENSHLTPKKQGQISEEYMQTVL
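HEK 293 cells stably expressing TSHR and a cAMP-gated CNG channel; parental CNG-only cells as counterscreen. Cells preloaded 60 min with membrane potential dye plus 100 uM RO 20-1724, then compound 30 min; fluorescence read at 590 nm.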
A647 fluor: compound autofluorescence in A647 spectral region | Compound fluorescence, A647 channel (570/671 nm), Tris buffer | max dye-equivalent concentration, M | 59,000 tested, under 10 active; active means above 1 µM dye equivalent; inconclusive means 0.1 to 1 µM; inactive means 0.1 µM or less;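 also: values scaled relative to a standard on each plate; highest value over a series up to 38 µM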
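Fluorescence read (570 nm ex, 671 nm em) after 15 min RT incubation of compounds in 100 mM Tris buffer, pH 8.0; values expressed as dye-equivalent concentration against a six-point A647 standard series on each plate.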
Resorufin fluor: resorufin region autofluorescence. Compound fluorescence, resorufin region 547/598 nm, buffer; stronger effect = higher value. max dye-equivalent concentration, M. 59,000 compounds, 0.04% hits; active = above 10 nM dye equivalent; inconclusive = 1 to 10 nM; inactive = 1 nM or less; a few of its hits are not listed in these tables; also: highest value over a series up to 38 µM
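Compounds in 100 mM Tris buffer, pH 8.0, incubated 15 min at room temperature, then read with 547 nm excitation and 598 nm emission filters. Fluorescence was converted to dye-equivalent concentration using an on-plate six-point resorufin standard curve.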
A488 fluor: compound autofluorescence in A488 spectral region. compound autofluorescence, A488 spectral region, dye equivalency; stronger effect = higher value. max dye equivalency, M. 59,000 compounds, 0.1% hits. AID 591; active = above 10 nM dye equivalent; inconclusive = 1 to 10 nM; inactive = 1 nM or less; about half of its hits are not listed in these tables;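 also: highest value over a series up to 38 µM; compound alone in buffer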
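Readout is A488 dye-equivalent concentration, calibrated by a per-plate six-point Alexa 488 series. Compounds in 100 mM Tris buffer pH 8.0 were incubated 15 min at room temperature. Plates were imaged using 480 nm excitation/540 nm emission filters.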
Active calls of the source: *; i = inactive; ? = inconclusive; . = no result given; & = joins results of further samples; [ ] = another dose, or the depositor's remark.

SMILES | AID923 | TSHR ag | A647 fluor | Resorufin fluor | A488 fluor
O=C(Nc1ccccc1N1CCCC1)c1ccco1 | 0.8% | 2% | 2.6e-08 | i | i
CCc1nnc(NC(=O)c2cccc(S(=O)(=O)N3CCN(c4ccccc4)CC3)c2)s1 | 0.6% | -5% | 1e-09 | i | i
O=C(Nc1nccs1)c1ccc(S(=O)(=O)NCC2CCCCC2)cc1 | 0.4% | ? | 2.5e-08 | i | i
COc1ccccc1-c1c(C)nn2c(C)c(C(C)=O)cnc12 | -0.6% | -2% | 2.3e-09 | i | i
COc1cccc(C(=O)N2CCCc3ccccc32)c1 | 0.4% | ? | 2.1e-08 | i | i
COc1cc(/C=N/NC(=O)c2cc(-c3ccccc3)n[nH]2)cc(OC)c1OC | -1.7% | -3% | . | . | .
COCCn1c(=S)[nH]c2cc(C(=O)N3CCC(C(N)=O)(N4CCCCC4)CC3)ccc2c1=O | -0.8% | -24% | 7.3e-09 | i | i
CCOC(=O)C1C(=O)NC(N2CCN(CC)CC2)=NC1c1ccccc1 (centres undefined) | -2.4% | . | 6.8e-09 | i | i
CCOc1cc(C(=O)Nc2ccc3c(c2)OCO3)ccc1OC(F)F | 5.0% | 4% | 4.5e-08 | i | i
O=C(COC(=O)C(O)c1ccccc1)c1ccc2c(c1)OCCO2 (centres undefined) | 0.4% | 4% | . | . | .
CCOC(=O)C1CCCN(C(=O)N2CCOCC2)C1 (centres undefined) | 0.2% | -6%[11.4 µM] | . | . | .
N=C1C(c2ccccc2)=C(O)C2CCc3ccccc3N12 (centres undefined) | 1.0% | -34%[inhibitor] | 4.3e-09 | i | i
O=C(CN1CCN(c2ncccn2)CC1)N(Cc1ccccc1)c1ccc(F)cc1 | -1.4% | ? | 4e-09 | i | i
CCCCC(NS(=O)(=O)c1ccc(OC)cc1)C(=O)O (centres undefined) | 4.3% | ? | . | . | .
CC(=O)Nc1nonc1-c1ccccc1 | -0.9% | ? | . | . | .
CN(CC(=O)NC(=O)NCc1ccco1)Cc1nc2ccccc2c(=O)[nH]1 | 2.1% | -3% | 2.8e-08 | i | i
CC1CCC2C(=O)OC(Cc3ccccc3)CN2C1c1ccc(Br)cc1 (centres undefined) | -0.6%&4.2%[11.5 µM] | ? | . | . | .
CCOc1ccc(-c2nnn(CC(=O)NCc3cccs3)n2)cc1 | -2.1% | -6% | 1e-09 | i | i
CCOC(=O)CSC1=C(C#N)C(c2ccco2)C(C(=O)OCc2ccccc2)=C(C)N1 (centres undefined) | 4.3% | . | 3.2e-09 | i | i
O=C1C=C(NCCO)C(=O)c2cnccc21 | -8.8% | 4% | . | . | .
CCCCCCNC(=O)CC(NS(=O)(=O)c1ccc(NC(C)=O)cc1)C(C)C (centres undefined) | -0.8% | -2% | 1.6e-08 | i | i
NC1(C(=O)O)C[C@H](C(=O)O)[C@H](C(=O)O)C1 (some centres undefined) | 0.2% | -1% | . | . | .
Cn1c(=O)c(-c2ccc(F)cc2)nc2cnc(Nc3ccccc3)nc21 | 7.7% | -3% | 1e-09 | i | i
CCn1ncc(C2=NOC(C(=O)Nc3ccccc3C(=O)OC)C2)c1C (centres undefined) | 2.7% | 4% | . | . | .
COCCCNC(=O)CCCOc1ccccc1 | 2.1% | 14% | . | . | .

Looked up by structure from above, 2 records:
SMILES | AID923 | TSHR ag | A647 fluor | Resorufin fluor | A488 fluor
O=C(Nc1nccs1)c1ccc(S(=O)(=O)NCC2CCCCC2)cc1 | 0.4% | ? | 2.5e-08 | i | i
O=C(Nc1ccccc1N1CCCC1)c1ccco1 | 0.8% | 2% | 2.6e-08 | i | i

Seven entries from above, arranged by number of heavy atoms, smallest number first:
SMILES | AID923 | TSHR ag | A647 fluor | Resorufin fluor | A488 fluor
O=C1C=C(NCCO)C(=O)c2cnccc21 | -8.8% | 4% | . | . | .
CCCCC(NS(=O)(=O)c1ccc(OC)cc1)C(=O)O (centres undefined) | 4.3% | ? | . | . | .
CCOc1cc(C(=O)Nc2ccc3c(c2)OCO3)ccc1OC(F)F | 5.0% | 4% | 4.5e-08 | i | i
CC1CCC2C(=O)OC(Cc3ccccc3)CN2C1c1ccc(Br)cc1 (centres undefined) | -0.6%&4.2%[11.5 µM] | ? | . | . | .
COc1cc(/C=N/NC(=O)c2cc(-c3ccccc3)n[nH]2)cc(OC)c1OC | -1.7% | -3% | . | . | .
O=C(CN1CCN(c2ncccn2)CC1)N(Cc1ccccc1)c1ccc(F)cc1 | -1.4% | ? | 4e-09 | i | i
CCOC(=O)CSC1=C(C#N)C(c2ccco2)C(C(=O)OCc2ccccc2)=C(C)N1 (centres undefined) | 4.3% | . | 3.2e-09 | i | i

Other structures.
SMILES | AID923 | TSHR ag | A647 fluor | Resorufin fluor | A488 fluor
COc1ncnc2c1N=C1CC(C)(C)CC(N)=C1S2 | 0.0% | -5% | 3.7e-09 | ? | ?
Cn1c(Nn2cnnc2)nc2ccccc21 | 0.4% | ? | 1e-09 | i | i
COc1ccc(C(=O)Nc2ccc(Cl)cc2C(=O)NCc2ccco2)cc1OC | 0.2% | ? | . | . | .
O=S(=O)(c1ccc(OCc2nc3ccccc3s2)c(Cl)c1)N1CCOCC1 | 0.1% | ? | 2.4e-08 | i | i
N/C(CCN1CCCCC1)=N/O | . | . | 5.6e-08 | i | i
Cc1ccc(C(=O)CC2(O)C(=O)N(Cc3ccccc3)c3ccccc32)o1 (centres undefined) | -0.9% | 19% | 3.1e-08 | i | i
CCOC(=O)N1CCN(c2cc3nccnc3cc2F)CC1 | -1.2% | 22% | 3.7e-09 | i | i
CCC(=O)Nc1ccc(C(=O)n2nc(C)cc2C)cc1 | -1.1% | -9% | . | . | .
Cc1ccc(N(C)C(=O)N2CCN(c3ccccn3)CC2)cc1 | -0.7% | 21% | . | . | .
c1ccc(N=P(c2nc3ccccc3o2)(N2CCOCC2)N2CCOCC2)cc1 | -0.5% | 0% | 1e-09 | i | i
COc1cc(NC(=O)CN2C(=O)c3ccccc3C2=O)c(C(=O)O)cc1OC | 1.2% | 27% | . | . | .
O=C(O)c1ccc(CS(=O)c2cccc(C(F)(F)F)c2)o1 (centres undefined) | 3.2% | -12% | 5.6e-09 | i | i
COc1ccc(NC(=O)C2CCCN(S(=O)(=O)c3ccc(C)cc3)C2)cc1OC (centres undefined) | -2.4% | -2% | 1e-09 | i | i
O=C1NCCCC1C(=O)NCCNC(=O)C(F)(F)F (centres undefined) | 2.6% | 2%[11.4 µM] | . | . | .
Cn1c(=O)c2c(nc(N3CCCCCC3)n2CC(=O)c2ccc(Br)cc2)n(C)c1=O | 1.5% | ? | 1e-09 | i | i
O=C(NC1=NCCS1)c1ccncc1 | 1.8% | 2% | 3.4e-08 | i | i
Cc1noc(C)c1-c1ccc2ncnc(N3CCN(C)CC3)c2c1 | 0.0% | ? | 3.4e-08 | i | i
CCOc1cc(S(=O)(=O)N2CC=C(c3ccc(F)cc3)CC2)c(OCC)cc1-n1cnnn1 | 0.6% | 13% | 1e-09 | i | i
COCCN(Cc1cc2cc3c(cc2n2nnnc12)OCO3)C(=O)c1ccccc1F | 3.4% | 3% | 4.7e-09 | i | i
CC1=C(C(=O)N2CCOCC2)C(c2ccccc2F)C2=C(CCCC2=O)N1 (centres undefined) | 9.2% | 0% | 1e-09 | i | i
COC(=O)c1ccc(C(NC(=O)OCc2ccccc2)/C(C)=C/[C@@H](C)C(=O)NCc2cccnc2)cc1 (some centres undefined) | 1.1% | ? | . | . | .
O=c1sc(Nc2ccccc2)nc2ccsc12 | 1.1% | . | 1.8e-08 | i | i
O=C(NCc1ccncc1)Nc1ccccc1Cl | 0.0% | 14% | . | . | .
COC(=O)C1CCN(C(=O)COC(=O)Cc2c[nH]c3ccccc23)CC1 | -2.2% | -5% | 1.3e-08 | i | i
O=C(Nc1ccccc1)N(Cc1cccs1)C1CCCC1 | -0.9% | -5% | 7.4e-09 | i | i
(next part)
SMILES | AID923 | TSHR ag | A647 fluor | Resorufin fluor | A488 fluor
Cn1cccc1C(=O)N1CCC2(CCN(Cc3ccc(C#N)cc3)CC2)CC1 | 0.6% | 10% | 1.9e-08 | i | i
O=C1NCCc2c1[nH]c1c(Cl)ccc(Cl)c21 | 0.0% | 25% | 9.1e-09 | i | i
Cn1c(-c2ccccc2)c(O)c(=O)c2ccccc21 | 2.4%[11.5 µM] | 2%[11.4 µM] | . | . | .
CCOC(=O)N1CCC(NC(=O)CCc2c(C)nc3c(c(C)nn3C(C)(C)C)c2C)CC1 | -1.4% | 7% | 1.6e-08 | i | i
CCOC(=O)C1CCN(c2nc3ccccc3nc2C(C#N)C(=O)NCCc2ccccc2)CC1 (centres undefined) | . | . | 1e-09 | i | i
CC1CCCCN1C(=O)Cc1ccc(Cl)cc1 (centres undefined) | -1.1% | 4% | 1e-09 | i | i
Cc1cc(S(=O)(=O)NC2CCCC2)ccc1F | -0.8% | 16% | 1e-09 | i | i
CN1C(=O)C(CC(=O)N2CCN(C(c3ccccc3)c3ccccc3)CC2)N(C)C1=O (centres undefined) | 0.4% | -1% | 6.2e-09 | i | i
Cc1cc(S(=O)(=O)N(Cc2ccccn2)Cc2ccco2)ccc1-n1cnnn1 | 0.8% | -5% | 1e-09 | i | i
CCOC(=O)c1c(C)c(-c2ccccc2)n(CC(=O)N2CCN(C)CC2)c1C | 2.7% | 3% | . | . | .
COCC(=O)N(Cc1cc2cc(OC)ccc2[nH]c1=O)c1ccc(C)cc1 | 3.1% | 1% | 3.8e-09 | i | i
COc1cccc(Cn2c(=O)c(-c3cc(F)cc(F)c3)nc3cncnc32)c1 | 9.6% | ? | 2.4e-08 | i | i
O=C(Cn1c(=O)c2c(ncn2C2CCCC2)n(Cc2ccccc2)c1=O)N1CCc2ccccc21 | -2.1% | 16% | 5.9e-08 | i | i
O=C(c1cccc(S(=O)(=O)N2CCCC2)c1)N1CCN(c2ccccc2F)CC1 | 1.2% | . | 1e-09 | i | i
C/C(N)=C(/C#N)C(=O)CSc1nnnn1-c1ccc(C)cc1 | 0.6% | ? | 1e-09 | i | i
COc1ccccc1NS(=O)(=O)c1cc(C(=O)NCCN2CCOCC2)ccc1Cl | 0.0% | ? | 1e-09 | i | i
O=S(=O)(c1ccc2oc(-c3ccncc3)nc2c1)c1ccc2oc(-c3ccncc3)nc2c1 | 0.6% | 12% | 3e-08 | i | i
O=c1c2cccc3c2c(nn1CN1CCOCC1)-c1ccccc1-3 | 5.8% | 17% | 1e-09 | i | i
NNC(=O)CS(=O)(=O)Nc1ncccn1 | -1.0%[11.5 µM] | -6%[11.4 µM] | 1e-09 | i | i
N#CCSc1nc2c(cc1C#N)CCCCCC2 | . | . | 7.8e-08 | i | i
C/C(=C\C(=O)c1cccnc1)Nc1ccc(C)c(C)c1 | -0.1% | 14% | . | . | .
CCOc1cc(-n2cnnn2)c(OCC)cc1NC(=O)c1cnccn1 | 1.0% | 4% | 2.6e-08 | i | i
O=C(OCc1nnc(-c2ccccc2)o1)c1ccc(S(=O)(=O)NCc2ccco2)cc1 | 0.4% | 16% | 1e-09 | i | i
COCCn1c(SCC(=O)Nc2sc(C)c(C)c2C#N)nnc1C(C)C | 1.9% | -4% | 6.2e-09 | i | i
CCCCOCC(O)Cn1c(C)nc2ccccc21 (centres undefined) | -0.1% | 0% | 1.6e-08 | i | i
COc1ccc(C2CC(c3ccc(C)cc3)Nc3ncnn32)cc1 (centres undefined) | 1.0% | 15% | . | . | .
CCOc1ccc(-n2c(C)nc3cc(C(=O)NCc4ccco4)ccc32)cc1 | -2.1% | 3%[11.4 µM] | 2.5e-08 | i | i
CC1CCCN(C(=O)C2CCN(S(=O)(=O)c3cccc4cccnc34)CC2)C1 (centres undefined) | 1.0% | 7% | . | . | .
CCOC(=O)N1CCC(NC(=O)C(CC(C)C)NC(=O)C2CCCCC2)CC1 (centres undefined) | 0.8% | 0% | 2.1e-08 | i | i
CCOC(=O)/C(C#N)=C1/C=Cc2ccccc2N1CC | -1.8% | -2% | . | . | .

The list is partial, so the mix of outcomes need not match the whole.
